From PubChem
StopGo RLuc: FMDV 2A StopGo reporter, Renilla signal; HEK cells with a luciferase reporter of 2A StopGo recoding; Potency, µM (titrated, usually from 57.5 µM), inactives show at the top dose signal change, negative = less light; actives 0.32% (n = 120,000); active means well fitted falling curve with a large enough effect; inconclusive means small, poorly fitted or top-dose-only effect; inactive means no such curve, though single readings can be large or run the other way; further: nearly all actives have a fitted effect of over 55% in size; overnight with compound
2A firefly: lowers the firefly signal of an FMDV 2A StopGo reporter | HEK cells with a luciferase reporter of 2A StopGo recoding | Potency, µM (highest dose often 57.5 µM), for the others: top-dose signal change, negative = less light | actives 0.23% (n = 120,000) | AID 1745856; active = well fitted falling curve with a large enough effect; inconclusive = small, poorly fitted or top-dose-only effect; inactive = no such curve, though single readings can be large or run the other way; further: nearly all actives have a fitted effect of over 60% in size; overnight with compound
* marks the source's active call; other numbers are inactive results; ? = inconclusive; [ ] = remark or other dose. On the % scale 0 is the no-effect control and ±100 the full control effect; potency means the concentration at half of the fitted maximal effect. Only part of the results is shown; the hit share may differ from the screen's.

SMILES	StopGo RLuc	2A firefly
O=C(O)c1cn(-c2ccc(F)cc2)c2cc(N3CCNCC3)c(F)cc2c1=O	6%[23.8 µM]	-1%[27 µM]
Cc1cc(=O)n2c3ccccc3n(CC(O)CNc3ccc(F)cc3)c2c1C#N (stereo not given)	-16%	-8%
CC(C)c1ccc(-c2nnc3n(CCc4ccccc4)c(=O)c4ccccc4n23)cc1	-10%	3%
CCc1ccc(-c2nc(CS(=O)CC(=O)NCc3ccc(F)cc3)c(C)o2)cc1 (stereo not given)	-5%	-37%
COc1ccc(CNC(=O)c2cc3c(=O)n4cccc(C)c4nc3s2)cc1	6%	0%
CCCn1nc(C(=O)Nc2ccc(Br)cc2F)c2ccccc2c1=O	-12%	0%
Cc1ccc(C(=O)OCC(=O)N(C)c2ccccc2)cc1F	-5%	-7%
Cc1onc(-c2ccccc2)c1C(=O)Cl	-8%	-15%[11.5 µM]
CC(=O)Nc1ccccc1-c1nc2ccccc2n(C(C)C(=O)Nc2cccc(C)c2C)c1=O (stereo not given)	-2%	3%
CCOC(=O)C(C)Sc1nnc2cc(C)c3ccccc3n12 (stereo not given)	3%	-8%
O=S(=O)(NC1CCSc2ccccc21)c1cccs1 (stereo not given)	113%[activator]	11%
CCOCc1nnc(NC(=O)C(CC)c2ccccc2)s1 (stereo not given)	-1%	-4%
COc1ccc(OC)c(NC(=O)/C=C/c2nc3ccccc3o2)c1	-23%	-2%
O=C(Cn1nc(C(=O)O)c2ccccc2c1=O)NCc1cccc(Cl)c1	-15%	-8%
Oc1c(Cl)cccc1C=Nc1cc(C(F)(F)F)ccc1Oc1ccc(Cl)cc1	-3%	80%[activator]
Cc1ccc(NC(=O)c2n[nH]c(=O)c3ccccc23)c(O)c1	23%	73%[activator]
CSc1ccccc1NC(=O)C(Sc1ccccc1)c1ccccc1 (stereo not given)	43%[activator]	-3%
CCOc1ccccc1NC(=O)CCc1ccc(-c2ccccc2)o1	27%	41%[activator]
COc1ccc(C)cc1NC(=O)c1cc(S(=O)(=O)N2CCCCC2)c[nH]1	4%	-13%
COc1cc(OC)cc(C(NC(=O)NOCc2ccccc2)c2nccn2C)c1 (stereo not given)	3%	21%
COc1cc(C=O)cc(Cl)c1OCc1cccc(F)c1	12%	19%
CCc1cccc(C)c1NC(=O)Cn1c(=O)n(-c2ccc(C)cc2)c(=O)c2c1cnn2C	10%	4%
CCCCN(CCCC)CCCNC(=O)c1cc(-c2ccc(Cl)s2)nc2ccccc12	-9%	0%
CCOC(=O)c1cc(CC)sc1NC(=O)CC1Sc2ccc(C(F)(F)F)cc2NC1=O (stereo not given)	-3%	-6%
Cc1nc2cccnc2n1C1CCN(C(=O)Nc2ccc(Cl)cc2)CC1	10%	55%[activator]

More entries.
SMILES	StopGo RLuc	2A firefly
Cc1cccc(OCC(=O)Nc2ccc(-c3nc4ccccc4o3)cc2)c1C	-11%	4%
CCCc1nnc2sc(-c3ccc(CNC(=O)c4ccccc4C)cc3)nn12	6%	8%
Cc1ccc(CNC(=O)CCc2nc3cccnc3n2Cc2ccccc2)cc1	6%	4%
CCN(CC)S(=O)(=O)NCCNS(=O)(=O)N(CC)CC	0%	4%
Cc1ccc(CN(Cc2ccco2)C(=O)COc2cc(C)c(Cl)c(C)c2)cc1	?	?
COc1ccc(C2C=C3c4cc5c(cc4CCN3C3=C2C(=O)CCC3)OCCCO5)cc1 (stereo not given)	-13%	0%
COc1ccc(CNC(=O)Cc2c(C)c3c(OC)cc(C)cc3oc2=O)cc1	8%	9%
Cc1ccc(CNC(=O)CC(C)Cc2nnc3c(=O)n(-c4cccc(F)c4)ccn23)cc1 (stereo not given)	-9%	-4%
CCN1CCCC1CN (stereo not given)	-7%	-16%
Cc1cccc(NC(=O)c2sc(-n3nc(C)c(CCC(C)C)c3C)nc2C)c1C	24%	-7%
CCCCN1CC(=O)N2[C@H](C[C@@]3(C)c4ccccc4N(S(=O)(=O)c4ccccc4)[C@@H]23)C1=O	51%[activator]	-11%
CCOC(=O)C(=O)Nc1nnc2n1CCS2	-7%	-17%
COc1ccccc1NC(=O)Cn1c(=O)n(CCCCCC(=O)NCc2ccccc2)c(=O)c2sccc21	-10%	-10%
Cc1ccccc1OCC(=O)N1CCN(Cc2cc(=O)n3nc(-c4ccccc4C)sc3n2)CC1	-12%	-9%
CCn1c(=O)c2cc(C(=O)NCCc3ccc(Cl)cc3)sc2c2ccccc21	-10%	-13%
Cc1c(C(=O)N2CCCC2)oc2c1-c1nn(CC(=O)NC(C)c3ccccc3)cc1CC2 (stereo not given)	-5%	-6%
COc1ccc([C@@H]2c3c(C)nn(-c4ccccc4)c3NC(=O)[C@H]2NC(=O)c2ccc(Cl)cc2)cc1	-1%	-3%
Cc1ccccc1Cn1c(CN2CCc3ccccc3C2)nc2c1c(=O)n(C)c(=O)n2C	-1%	3%
Cc1ccc(S(=O)(=O)N2CCN(C(=O)Cc3ccc(-c4ccccc4)cc3)CC2)cc1	-37%	?
COc1ccc(C(=O)CSc2nnc3c(=O)n(-c4ccc(C(C)C)cc4)ccn23)cc1OC	-17%	2%
CCc1ccc(-n2c(=O)c3cccnc3n2CC(=O)N(CC)c2cccc(C)c2)cc1	0%	-18%
Cc1ccc(NS(=O)(=O)c2ccc3[nH]c4c(c3c2)CCCCCC4)cc1C	-7%	-10%
Cc1ccc(C2=Nc3ccccc3N(CC(=O)NCc3ccccc3Cl)C(=O)C2)cc1C	33%[activator]	120%[activator]
N/C(COc1cccc2ccccc12)=N\O	-4%	20%
CC1=C(C(N)=O)C(c2ccc(Cl)cc2)n2nc(-c3cccc(C)c3)nc2N1 (stereo not given)	7%	17%

14 entries out of the list, arranged by SMILES length, descending:
SMILES	StopGo RLuc	2A firefly
COc1ccccc1NC(=O)Cn1c(=O)n(CCCCCC(=O)NCc2ccccc2)c(=O)c2sccc21	-10%	-10%
CC(=O)Nc1ccccc1-c1nc2ccccc2n(C(C)C(=O)Nc2cccc(C)c2C)c1=O (stereo not given)	-2%	3%
COc1ccc(C2C=C3c4cc5c(cc4CCN3C3=C2C(=O)CCC3)OCCCO5)cc1 (stereo not given)	-13%	0%
Cc1ccc(C2=Nc3ccccc3N(CC(=O)NCc3ccccc3Cl)C(=O)C2)cc1C	33%[activator]	120%[activator]
CC(C)c1ccc(-c2nnc3n(CCc4ccccc4)c(=O)c4ccccc4n23)cc1	-10%	3%
CCc1ccc(-c2nc(CS(=O)CC(=O)NCc3ccc(F)cc3)c(C)o2)cc1 (stereo not given)	-5%	-37%
O=C(O)c1cn(-c2ccc(F)cc2)c2cc(N3CCNCC3)c(F)cc2c1=O	6%[23.8 µM]	-1%[27 µM]
Oc1c(Cl)cccc1C=Nc1cc(C(F)(F)F)ccc1Oc1ccc(Cl)cc1	-3%	80%[activator]
COc1cc(OC)cc(C(NC(=O)NOCc2ccccc2)c2nccn2C)c1 (stereo not given)	3%	21%
Cc1ccc(CNC(=O)CCc2nc3cccnc3n2Cc2ccccc2)cc1	6%	4%
CCOc1ccccc1NC(=O)CCc1ccc(-c2ccccc2)o1	27%	41%[activator]
CSc1ccccc1NC(=O)C(Sc1ccccc1)c1ccccc1 (stereo not given)	43%[activator]	-3%
COc1cc(C=O)cc(Cl)c1OCc1cccc(F)c1	12%	19%
CCOC(=O)C(=O)Nc1nnc2n1CCS2	-7%	-17%

Further entries
SMILES	StopGo RLuc	2A firefly
CCOc1ccc(NC(=O)Cc2c(C)[nH]n(-c3nc(-c4ccc(Cl)cc4)cs3)c2=O)cc1	-15%	16%
CC(OC(=O)c1nn(C)c(=O)c2ccccc12)C(=O)Nc1cc(C(F)(F)F)ccc1Cl (stereo not given)	3%	8%
CCN(CC)c1cc(C)c2cc(NC(=O)c3cc(OC)cc(OC)c3)ccc2n1	13%	4%
CCc1noc(C(C)N2CCN(C(=O)Cc3ccc(C)cc3)CC2)n1 (stereo not given)	-5%	-7%
O=C(NCC1CCCOC1)c1cc(-c2ccncc2)nc2ccccc12 (stereo not given)	-8%	1%
Cc1ccc(C(C)C)c(OC(=O)c2ccc(-c3ccccc3)cc2)c1	0%	1%
Cc1ccccc1C(=O)N/C(=C\c1ccc(O)cc1)C(=O)O	1%	2%
Cc1ccc(CNC(=O)CCNS(=O)(=O)c2ccc3c(c2)oc(=O)n3C)cc1	-6%	-8%
CC(=O)c1ccc(C(=O)N(C)Cc2ccc(C)cc2C)s1	?	12%
O=S(=O)(NCc1ccc(N2CCOCC2)nc1)c1cc(C(F)(F)F)cc(C(F)(F)F)c1	18%	-2%
O=C(c1ccccc1O)N1CCN(S(=O)(=O)c2ccc3ccccc3c2)CC1	109%[activator]	2%
COc1ccc(Cn2c(Oc3ccc(C)cc3)nc3c2c(=O)n(C)c(=O)n3C)cc1	-3%	-9%
COc1ccc(-c2c3c(=O)n(C)c(=O)n(C)c3c3n2CCOC3c2coc3ccccc3c2=O)cc1 (stereo not given)	-17%	-17%
Cc1cc(C)c(NC(=O)Cn2nnc(C(=O)NCc3cccs3)c2N)c(C)c1	-3%	35µM*
Cn1nc(C(=O)Nc2ccccc2C#N)c2c1-c1ccccc1SC2	-10%	-12%
COc1ccccc1Nc1c2c(nc3ccc(NC(=O)c4ccc(OC)c(OC)c4)cc13)CCCC2	14%	5%
O=C1CCCc2cc(S(=O)(=O)NCC3CCC(C(=O)Nc4ccccc4F)CC3)ccc2N1 (stereo not given)	-27%	-26%
CCC1CN=C(Nc2cccc(C)c2)S1 (stereo not given)	13%	86%[activator]
Cc1nc2n(c(=O)c1Cc1ccccc1)CN(Cc1ccccn1)CN2c1ccc(F)cc1	38%[activator]	10%
CCn1cc(S(=O)(=O)c2ccc(C)cc2C)c(=O)c2cc(F)c(N3CCCC3)cc21	31%[activator]	-17%
O=C(O)CC(C(=O)O)C1CCCO1 (stereo not given)	16%	23%
CCSc1ncc(Cl)c(C(=O)Nc2ccc(S(=O)(=O)N3CCCCC3CC)cc2)n1 (stereo not given)	153%[activator]	-10%
CC(=O)c1cccc(NC(=O)CCc2nc(CSc3nc4ccccc4o3)no2)c1	-12%	5%
CC(Sc1nc(Nc2ccccc2)c2ccccc2n1)C(=O)N1CCCC1 (stereo not given)	1%	-6%
CCOc1ccc(CCNC(=O)Cn2nnc(-c3ccc(C(F)(F)F)cc3)n2)cc1OCC	-9%	-14%

Further compounds:
SMILES	StopGo RLuc	2A firefly
COc1ccc(-c2cc(=O)c3cc(OC(=O)C(C)C)ccc3o2)cc1	34%[activator]	43%[activator]
Cc1ccc(C(=O)CSc2nc(C)cc(C)c2C(=O)Nc2cccc(C)c2)cc1	20%	22%
CCOCCCNC(=O)N[C@H](C(=O)O)C(C)CC (stereo not given in full)	3%	0%
CCCN(CC(=O)Nc1ccccc1C(=O)c1ccccc1)Cc1nnc(-c2ccco2)o1	14%	-10%
CCC(=O)N1CCc2cc(Br)cc(S(=O)(=O)CCC(=O)NCc3ccc(F)cc3)c21	0%	-23%
Cc1cc(=O)oc2cc3c(cc12)CCC1(CCC(C)CC1)O3 (stereo not given)	3%	8%
CC(C)c1ccc2cc(C(=O)N(Cc3ccco3)C3CC3)[nH]c2c1	32%[activator]	191%[activator]
O=c1oc2ccccc2cc1S(=O)(=O)c1cccc(Cl)c1	-6%	-3%
CCNc1sc(C(C)=O)c(N)c1C#N	0%	0%
NCCc1ccc(OC(F)(F)F)cc1	11%	18%
CC1CCc2nc(N)c(C#N)c(-c3ccc(F)cc3)c2C1 (stereo not given)	-8%	-1%
CCOc1ccccc1NC(=O)CCS(=O)(=O)c1ccc2c(c1)oc(=O)n2C	-7%	-9%
CC(C)c1ccc2oc(=O)cc(CN3CCN(c4ccccc4F)CC3)c2c1	13%	7%
O=C(COc1ccccc1C(=O)Nc1ccccc1)NC1CC1	-9%	36%[activator]
O=C(CCn1c(=O)oc2cc(Cl)ccc21)Nc1cccc(-c2nnc3n2CCCCC3)c1	23%	14%
CC(=O)c1c(C)n(-c2ccccc2C)c2ccc(O)cc12	1%	3%
O=C(CCN1C(=O)NC2(CCCC2)C1=O)Nc1cccc2cccnc12	1%	0%
O=C(Nc1nc(-c2ccc(-c3ccccc3)cc2)cs1)C1CCN(C(=O)c2ccoc2)CC1	?	?
COc1cccc(NC(=O)c2ncoc2-c2ccc(C)s2)c1	-4%	49%[activator]
Cc1ccc(S(=O)(=O)Oc2ccc3c(C(F)(F)F)cc(=O)oc3c2)c(C)c1	9%	2%
Cc1oc(-c2cccs2)nc1CC(=O)NCc1ccc(CN2CCCCC2)cc1	-14%	-4%
CCOc1ccc(NC(=O)CSc2nc3ccccc3c(=O)n2CCC(=O)NC2CCCCC2)cc1	-19%	-14%
CC(=O)c1cc(C(=O)Nc2cc(C)cc(C)c2)c2ccccn12	-17%	-7%
O=C(/C(Cl)=C/NCc1ccccn1)C(F)(F)F	-10%	-7%
COc1ccc(-c2c(C#N)c(SCC(=O)Nc3ccccc3C)nc(C)c2C(=O)Nc2ccc(Cl)cc2)cc1	11%	4%

More entries
SMILES	StopGo RLuc	2A firefly
COC(=O)CCN(C)CC1CCCO1 (stereo not given)	-10%	-14%
COc1nc(C(=O)N2CCOC(C)(C)C2)cc2ccccc12	21%	17%
COc1cccc(Oc2c(C(F)(F)F)oc3cc(OC)ccc3c2=O)c1	17%	91%[activator]
CCOc1ccc(NC(=O)CCCN2C(=O)C(c3ccccc3)Oc3cccnc32)cc1 (stereo not given)	11%	-5%
N#Cc1nc(COc2cccc(Cl)c2)oc1NCCc1ccccc1	19%	76%[activator]
Cc1cc(C)c2sc(NC(=O)c3ccc(S(=O)(=O)N4CCOCC4)cc3)nc2c1	-7%	6%
CC(Cn1cccn1)NC(=O)c1cc(Cl)c2c(c1)OCCCO2 (stereo not given)	-3%	57%[activator]
Cc1c(Cc2ccccc2)c(=O)oc2cc(OCC(=O)NCCCO)ccc12	0%	6%
COc1ccc2c(c1)NC(c1ccc(OCC(C)C)cc1)=NC(c1ccncc1)=N2	55%[activator]	2%
O=C(CN(c1ccccc1F)S(=O)(=O)c1ccccc1)NCCN1CCOCC1	-20%	-17%
